High-throughput results deposited in PubChem BioAssay by several laboratories.
Platelet DG rel – platelet dense granule release activity; inhibition, %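 (compounds screened at 7.5 µM in platelet-rich plasma)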; human platelet-rich plasma, SFLLRN dense granule ATP release, luminescence; actives 0.22% (n = 300,000); AID 1663;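 active means mean replicate score, as percent of positive control, at or above 50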
KCNK3 block – human KCNK3 channel inhibition, primary screen. actives 0.84% (n = 340,000). CHO-KCNK3 thallium flux, FluxOR fluorescence; active compounds read low. AID 602410. B-score at 10 µM. O14649;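 active means B-score under library mean minus 4 SD, starting fluorescence ratio at most library mean plus 5 SD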;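 further: more negative B-score means stronger inhibition of thallium flux through KCNK3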
Target sequence (O14649 whole entry, looked up): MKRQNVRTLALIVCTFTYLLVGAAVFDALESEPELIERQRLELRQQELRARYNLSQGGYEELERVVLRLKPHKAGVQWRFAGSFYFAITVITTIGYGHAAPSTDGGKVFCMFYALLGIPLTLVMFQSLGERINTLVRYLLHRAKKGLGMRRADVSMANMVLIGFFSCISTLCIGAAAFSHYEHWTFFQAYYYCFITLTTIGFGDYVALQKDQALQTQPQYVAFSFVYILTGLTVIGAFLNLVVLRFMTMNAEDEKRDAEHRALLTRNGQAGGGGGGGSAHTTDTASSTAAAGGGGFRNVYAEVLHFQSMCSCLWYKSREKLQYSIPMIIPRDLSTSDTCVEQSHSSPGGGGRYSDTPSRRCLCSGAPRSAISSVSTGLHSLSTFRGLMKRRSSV
TRPC4 potent – allosteric potentiators of mouse TRPC4 channel | actives 0.42% (n = 310,000) | B-score at 10 µM | AID 2227 | HEK293 TRPC4beta/mu-opioid, DAMGO EC20, Fluo-4 Ca2+ flux; active compounds read high;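 active means B-score of calcium response area above 5 SD of library B-scores, with initial fluorescence ratio within 5 SD of library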;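 further: B-score of integrated fluorescence ratio over time as area under calcium response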
TRPC4 act – opens the mouse TRPC4 cation channel; HEK293 TRPC4beta/mu-opioid, Fluo4 calcium fluorescence; active compounds read high; actives 0.49% (n = 310,000); B-score at 10 µM; Q9QUQ5;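 active means B-score above 5 SD of library B-scores, and initial fluorescence ratio not above library mean plus 5 SD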;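 further: positive B-score marks a calcium rise read as TRPC4 activation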
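system = HEK293 cells stably co-expressing mouse TRPC4beta and mu-opioid receptor | schedule = Fluo4 dye loading 45 min at room temperature, 110 s recording | measure = B-scored integrated calcium fluorescence ratio | signal = Fluo4 calcium-sensitive dye fluorescence, kinetic, 1 Hz baseline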
TRPC4 inh – blocks the mouse TRPC4 cation channel; Q9QUQ5; HEK293 TRPC4beta/mu-opioid, DAMGO-evoked Fluo4 calcium flux; active compounds read low; B-score at 10 µM; actives 0.39% (n = 300,000); AID 2247;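 active means B-score over 3 SD under the library average, no early fluorescence shift, positive overall ratio signal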
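Assay system – HEK293 line stably carrying TRPC4beta and mu-opioid receptor · Doses – single dose · Detection – Fluo4 calcium-dye fluorescence, kinetic read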
Dyrk1A ADPGlo – Dyrk1A (rat) kinase inhibition; inhibition, % at 12.5 µM; actives 0.43% (n = 310,000); AID 504441; ADP-Glo luminescence, NFATc1 peptide; in the data active means inhibition above about 50%;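 further: plate controls were vehicle with enzyme for no effect and no enzyme for full effect; many of its hits are not listed in these tables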
The depositor's hits bear a star; i = inactive; . = no result given; & = joins results of further samples. An excerpt, so the mix of outcomes need not match the whole.

Start of the data: the first 6 records (preview)
entry | SMILES | TRPC4 potent | Platelet DG rel | KCNK3 block | TRPC4 act | TRPC4 inh | Dyrk1A ADPGlo
1 | CCC/C=C(\CCC)C(NC(=O)CCc1ccccc1)c1ccc(C(F)(F)F)cc1 (centres undefined) | i | -5.1 | . | i | i | .
2 | CCC(C(=O)Nc1ccccc1-c1ccccc1)c1ccccc1 (centres undefined) | i | -6.3 | i | i | i | -0.4
3 | c1csc(C(c2nnnn2C2CCCC2)N2CCCC3(CCCCC3)C2)c1 (centres undefined) | i | 12.8 | i | i | i | -3.0
4 | N#CC1(C#N)C2=C(CCCC2)NC(c2ccccc2)C1(C#N)C#N (centres undefined) | i | 1.1 | . | i | i | .
5 | CCCC1=C(C(=O)OCC)C(c2ccc(OC)c(CSc3ccccn3)c2)C(C#N)=C(N)O1 (centres undefined) | i | -10.3 | i | i | i | 7.0
6 | O=C1c2cccc3c2[C@H](CCC3)CN1[C@@H]1CN2CCC1CC2 | i | 7.7 | . | i | i | .

This part in full, from the start:
entry | SMILES | TRPC4 potent | Platelet DG rel | KCNK3 block | TRPC4 act | TRPC4 inh | Dyrk1A ADPGlo
1 | CCC/C=C(\CCC)C(NC(=O)CCc1ccccc1)c1ccc(C(F)(F)F)cc1 (centres undefined) | i | -5.1 | . | i | i | .
2 | CCC(C(=O)Nc1ccccc1-c1ccccc1)c1ccccc1 (centres undefined) | i | -6.3 | i | i | i | -0.4
3 | c1csc(C(c2nnnn2C2CCCC2)N2CCCC3(CCCCC3)C2)c1 (centres undefined) | i | 12.8 | i | i | i | -3.0
4 | N#CC1(C#N)C2=C(CCCC2)NC(c2ccccc2)C1(C#N)C#N (centres undefined) | i | 1.1 | . | i | i | .
5 | CCCC1=C(C(=O)OCC)C(c2ccc(OC)c(CSc3ccccn3)c2)C(C#N)=C(N)O1 (centres undefined) | i | -10.3 | i | i | i | 7.0
6 | O=C1c2cccc3c2[C@H](CCC3)CN1[C@@H]1CN2CCC1CC2 | i | 7.7 | . | i | i | .
7 | Cc1ccccc1S(=O)(=O)Cc1ccc(C(=O)N2CCN(c3cccc(C)c3C)CC2)o1 | i | -0.8 | i | i | i | -24.9
8 | C=CCOC(=O)C1=C[C@@H](c2csc3ccccc23)C[C@@H](OCc2ccc(CO)cc2)O1 | i | -0.4 | i | i | i | -0.7

Additional records
entry | SMILES | TRPC4 potent | Platelet DG rel | KCNK3 block | TRPC4 act | TRPC4 inh | Dyrk1A ADPGlo
9 | Cn1c(=O)c(C(=O)NNC(=O)c2ccccc2Cl)c(O)c2ccccc21 | i | 3.0 | i | i | i | 0.2
10 | CCCCCCCCCCOC(=O)Cn1c(COc2ccccc2C)[n+](C)c2ccccc21 | i | -2.9 | i | i | -6* | 2.8
11 | O=C(CCl)Nc1nc(-c2ccco2)c(-c2ccco2)s1 | i | 11.0 | i | i | i | -1.3
12 | O=C(Nc1ccc(Cl)cc1)c1csc(Cc2ccccc2)n1 | i | 3.0 | i | i | i | 4.5
13 | CCOc1ccc(CCNC(=O)CN2C(=O)CCSc3ccccc32)cc1OCC | i | 7.9 | i | i | i | -5.9
14 | Fc1ccc([C@@H]2CCNC[C@H]2COc2ccc3c(c2)OCO3)cc1 | i | 2.7&13.7 | i | 142* | i | 2.9&13.9&4.6
15 | CCn1nc(NC(=O)c2ccccc2)c2cc3cccc(C)c3nc21 | i | -3.0 | i | i | i | 3.6
16 | Cc1nc2ccc(C(=O)NCc3ccc4c(c3)OCO4)cc2s1 | i | -1.4 | i | i | i | 2.8

(next part)
entry | SMILES | TRPC4 potent | Platelet DG rel | KCNK3 block | TRPC4 act | TRPC4 inh | Dyrk1A ADPGlo
17 | CSc1ccc2c(c1)N(CCC1CCCCN1C)c1ccccc1S2 (centres undefined) | i | 3.9 | i | i | i | 11.6
18 | COc1ccc(-c2cccc(NC(=O)COc3ccc(Cl)cc3)c2)nn1 | i | 9.8 | i | i | i | -0.6
19 | CC1=C(/C=C/C(C)=C/C=C/C(C)=C/C=C/C=C(C)/C=C/C=C(C)/C=C/C2=C(C)CCCC2(C)C)C(C)(C)CCC1 | i | -8.3 | . | i | i | .
20 | Cc1nc(N2CCN(c3ccccn3)CC2)c2c(C)c(C(=O)Nc3ccc(F)cc3)sc2n1 | i | 0.3 | -13* | i | i | 12.1
21 | COC(=O)Cc1c(CSc2ccccc2)oc2ccc(O)c(CN(C)C)c12 | i | 0.9 | i | i | i | -4.2
22 | Cc1cccc(N2CCN(C(=O)c3cnn4c(C(F)F)cc(-c5ccccc5)nc34)CC2)c1C | i | -34.2 | i | i | i | 7.2
23 | c1ccc(CCn2c(C3CC3)nc3ccccc32)cc1 | i | 1.8 | i | i | i | 0.1
